# High-throughput results as filed in PubChem BioAssay.
# Polio RdRp inh – poliovirus RNA polymerase inhibition; P03300; poliovirus polymerase elongation, fluorescence polarization; stronger effect = lower value; % elongation, % (compound at 16.7 µg/mL); 150,000 tested, 0.66% active; in the data active = % elongation below about 90%; note: some results filed as inactive read as strong as hits
# Target sequence (P03300 1749-2209 limits assumed): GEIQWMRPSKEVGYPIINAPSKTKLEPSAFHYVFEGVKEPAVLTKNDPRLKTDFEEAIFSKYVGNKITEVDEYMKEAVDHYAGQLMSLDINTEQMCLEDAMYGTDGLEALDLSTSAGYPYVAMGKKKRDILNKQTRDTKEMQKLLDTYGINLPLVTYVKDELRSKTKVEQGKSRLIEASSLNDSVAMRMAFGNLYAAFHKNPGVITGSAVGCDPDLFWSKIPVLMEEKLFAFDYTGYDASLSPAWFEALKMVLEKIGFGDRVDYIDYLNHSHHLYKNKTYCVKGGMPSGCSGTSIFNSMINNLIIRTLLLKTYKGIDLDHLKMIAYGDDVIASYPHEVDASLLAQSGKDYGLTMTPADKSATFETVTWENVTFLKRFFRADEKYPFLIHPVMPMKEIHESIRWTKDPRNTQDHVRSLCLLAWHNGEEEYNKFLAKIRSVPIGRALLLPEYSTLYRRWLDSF
# MbtI inh – MbtI salicylate synthase inhibition | P9WFX0 | purified MbtI enzyme, fluorescence intensity read-out | inhibition, %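 (about 17 µg/mL by stock and volumes)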 | 100,000 tested, 0.89% active | AID 493033;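 active = above 50% in both replicates, above 80% if mildly self-fluorescent; inactive = the rest, strongly fluorescent compounds included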;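 note: 0% = mean of negative and 100% = mean of positive controls; one replicate is shown; some compounds called inactive have numbers as strong as hits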
# MenB inh – Mtb MenB enzyme inhibition; 100,000 tested, 0.43% active; MenB enzyme assay, absorbance read-out; some hits fall short of the stated cut; inhibition, %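 (about 12 µg/mL by stock and volumes)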; P9WNP5;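 active = mean of two replicates above 30%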;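 note: 0% = no compound and 100% = wells with inactive enzyme; the first replicate is given; strong numbers were not always called active; inactives centre near -10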
# Target sequence (P9WNP5 whole entry, looked up): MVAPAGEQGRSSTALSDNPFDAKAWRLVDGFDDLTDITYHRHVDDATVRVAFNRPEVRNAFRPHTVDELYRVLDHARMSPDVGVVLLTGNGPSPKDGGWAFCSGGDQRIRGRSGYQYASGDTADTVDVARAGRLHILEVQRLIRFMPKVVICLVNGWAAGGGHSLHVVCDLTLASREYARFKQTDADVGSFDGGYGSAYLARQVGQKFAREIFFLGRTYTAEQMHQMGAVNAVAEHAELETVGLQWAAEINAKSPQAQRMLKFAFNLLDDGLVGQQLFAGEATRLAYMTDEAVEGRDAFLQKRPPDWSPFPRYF
# Polio RdRp inh intensity – also measured in Polio RdRp inh; calls as there; % elongation; measured here: total intensity read-out; formula for this scale not given here;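 total fluorescence in place of polarization; lower means less elongation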
# * = called active by the depositor; i = inactive; . = no result given.
SMILES,Polio RdRp inh,Polio RdRp inh intensity,MbtI inh,MenB inh
Cc1cc(C)c(NC(=O)C(C)OC(=O)c2ccccc2O)c(C)c1 (configuration not stated),102,103,20,11
O=C(NCCC1=CCCCC1)Nc1c[nH]c2ccccc12,100,98,-73,8
CN(C)c1ccc(/C=C/C(=O)/C=C/c2ccc3c(c2)OCO3)cc1,69,195,-44,-41
Cc1noc(C)c1/C=C/C(=O)O,93,94,-25,2
O=C(NCCCN1CCC(Cc2ccccc2)CC1)c1noc2ncnc(N3CCCC3)c12,103,102,-18,-3
CCOc1ccc(N/C=C2/CCCC(C)C2=O)cc1 (configuration not stated),105,104,-26,-36
O=C(NC1CCCc2ccccc21)C1CCN(S(=O)(=O)c2cccs2)CC1 (configuration not stated),100,104,10,-10
Cc1noc(C)c1CN1c2cccc3cccc(c23)S1(=O)=O,104,106,18,11
CCc1cccc2c(C(C(=O)c3ccccc3)c3c[nH]c4c(CC)cccc34)c[nH]c12,106,106,3,-28
O=C1CNC(c2ccc(Cl)cc2Cl)N1O (configuration not stated),100,100,8,13
O=C(O)CCNC(=O)NC12CC3CC(CC(C3)C1)C2,104,102,-1,1
N#CC(C#N)=NNc1ccc(F)cc1C(F)(F)F,103,100,-1,-88
Cc1ccc(Nc2c(-c3ccco3)nc3ccccn23)cc1,99,104,116,-10
CCn1cc(C(=O)N2CCN(c3ccccc3)CC2)c(=O)c2cc(S(=O)(=O)N3CCCCC3)ccc21,100,102,-1,2
CC(=O)N/N=C(\C)c1ccc2c(c1)OCCO2,101,102,10,-11
CCN(C(=O)Cc1ccccc1OC)c1nnc(-c2ccncc2)s1,100,104,18,0
CC1CCN(C(=O)c2nn(C)c3c2CCc2sccc2-3)CC1,100,102,0,6
CC1CCN(C(=O)CN(c2ccccc2)S(C)(=O)=O)CC1,101,103,8,14
COc1ccccc1NC(=O)CCc1c(C)nc2nc(CNC(=O)OC(C)(C)C)nn2c1C,104,102,-6,-8
CC[N+](C)(C)Cc1ccco1,103,103,-6,2
Cc1oc(C(C)(C)C)cc1-c1cc(NC(=O)C2CCC2)n(-c2ccc(I)cc2)n1,101,100,-3,-15
COc1ccc2c(c1)CCC(=O)C2,103,111,-7,-5
CCOc1cc(CN2CCN(C)CC2)ccc1OCC(=O)Nc1cccc(C(F)(F)F)c1,91,92,-21,3
Cc1ccc(C)n1-c1cc(S(=O)(=O)N2CCOCC2)ccc1N1CCCC1,104,99,52,15
O=C1N(Cc2ccccc2)C(c2ccccc2)C1(F)F (configuration not stated),101,95,-1,.

# The results go on.
SMILES,Polio RdRp inh,Polio RdRp inh intensity,MbtI inh,MenB inh
C=CCn1c(COc2ccc(CC)cc2)nnc1SC(C)C,102,103,5,-22
O=C(O)c1ccc(N=NN2CCCC2)cc1,102,106,.,0
Cc1cnc(NC(=O)CCCSc2ccccc2)s1,.,.,-11,-11
COc1ccc(CCNC(=O)c2nc3ccccc3c(=O)[nH]2)cc1OC,92,90,-6,-6
CCC(Sc1nc2sc(C(=O)OC)c(C)c2c(=O)n1N)C(=O)NCC1CCCO1 (configuration not stated),99,101,-3,-18
COc1ccc(NC(=O)c2cc(NC(=O)C3CCCCC3C(=O)O)ccc2N2CCOCC2)cc1 (configuration not stated),102,104,-8,-25
Cn1cccc1CC(=O)N1N=CCC1(O)C(F)(F)F (configuration not stated),108,108,21,-9
Cc1cccc(N2CC(C(=O)OCn3nnc4ccccc4c3=O)CC2=O)c1C (configuration not stated),99,92,30,-31
N#Cc1c(NC(=O)c2ccc3ncsc3c2)sc2c1CCC2,99,99,7,-14
O=C1CC(c2ccco2)CC(O)=C1C=NCCN1CCN(C(=O)Nc2ccc(Cl)cc2)CC1 (configuration not stated),101,103,-7,-2
CCOc1ccc(S(=O)(=O)N/N=C(\C)c2ccc3c(c2)OCO3)cc1,101,104,18,-14
CCCSc1nnc(-c2cccc(S(=O)(=O)N(C)C)c2)n1-c1cccc(OC)c1,104,105,9,-17
Cc1[nH][nH]c(=O)c1C=Nc1ccc(O)c(C(=O)O)c1,102,98,19,-369
CCOCCn1ccc2c(OCC(N)=O)cccc2c1=O,102,109,55,-8
O=C(O)c1ccc2ncsc2c1,88*,82*,77,.
CC1CCCCN1c1ncccc1C(=O)N1CCCC1 (configuration not stated),107,101,1,-48
S=C(c1ccc(N2CCCC2)c(Br)c1)N1CCOCC1,98,102,45,-9
CC(C)(C)NC(=S)N/N=C1/CCCc2occc21,100,100,19,-69
Cn1c(SCC(=O)N2c3ccccc3Sc3ccccc32)nnc1-c1ccco1,102,103,5,-10
CCOC(=O)N1CCN(C(=O)c2ccc(N(Cc3ccccc3)S(C)(=O)=O)cc2)CC1,100,104,-11,1
COC(=O)C1=C(N)OC2=C(C(=O)CC(C)(C)C2)C1c1ccc(C(=O)OC)cc1 (configuration not stated),101,104,.,-1
COCCn1c(SC)nc2c(c1=O)SCC2,101,103,0,-6
Cc1ccccc1N1C(=O)C(Oc2ccc(Cl)cc2)C1CNCCc1ccccc1 (configuration not stated),102,100,4,-15
CC(C)(C)c1ccc(S(=O)(=O)N2CCC(O)(c3ccc(Cl)cc3)CC2)cc1,105,111,-13,-18
N#CCC(=O)Nc1ccco1,101,107,-15,.

# Random excerpt: two records from the list.
SMILES,Polio RdRp inh,Polio RdRp inh intensity,MbtI inh,MenB inh
COC(=O)C1=C(N)OC2=C(C(=O)CC(C)(C)C2)C1c1ccc(C(=O)OC)cc1 (configuration not stated),101,104,.,-1
COc1ccc(CCNC(=O)c2nc3ccccc3c(=O)[nH]2)cc1OC,92,90,-6,-6

# Further structures follow:
SMILES,Polio RdRp inh,Polio RdRp inh intensity,MbtI inh,MenB inh
COc1ccc(C2CC(=O)Nc3ncnn32)cc1 (configuration not stated),101,102,-5,4
S=C(Nc1ccccc1Cl)N1CCCCC1,99,104,-12,0
CCC1CCCCN1C(=O)c1cc(C)no1 (configuration not stated),100,102,-8,-3
CSc1nn(-c2ccccc2)cc1C(=O)Nc1ccc(Cl)cc1,107,105,47,-18
CC1(C)C2CC=C(COCC(O)CNCC3COc4ccccc4O3)C1C2 (configuration not stated),100,101,-5,-13
CSc1nc(-c2ccccc2)nc2c1CCCC2,103,100,-8,.
O=C(NN1CC(=O)N(Cc2ccco2)C1=O)C(c1ccccc1)c1ccccc1,102,101,-3,-2
CCCC1=C(C(=O)OC)C(c2ccc(C(=O)OC)cc2)NC(=O)N1C (configuration not stated),106,110,2,5
O=C(NNc1nc(-c2ccccc2)cs1)c1cccs1,104,103,9,-31
Fc1ccc(/C=N/c2nc3ccccc3s2)cc1,102,99,-9,.
Fc1ccc(-c2cnc(CN3CCCCC3c3nc4ccccc4s3)o2)cc1 (configuration not stated),110,116,0,-25
Nc1c(C(=O)c2cccs2)sc2nc3c(cc12)CCCC3,95,121,-7,-16
CCOC(=O)c1c(SC)n[nH]c1N,105,104,-3,-19
CCOC(=O)Nc1cccc(C(=O)O)c1,101,103,-7,8
CC(=O)NCc1ccc(-c2csc(CC(=O)Nc3ccc(C)cc3C)n2)o1,108,115,5,-23
CCOC(=O)N1CCC(NCCNC(=O)c2ccccc2Cl)CC1,101,102,-20,-9
COc1ccc(C2C(C(=O)N(C)c3ccc(C(C)C)cc3)c3ccccc3C(=O)N2C)cc1 (configuration not stated),104,104,0,-26
CCN(Cc1ccccc1)C(=O)CSc1nc2ncccc2[nH]1,102,105,2,-4
O=C(/C=C1/Sc2ccccc2N(Cc2ccc(F)cc2)C1=O)NCc1ccccc1,100,100,1,-43
CCOc1ccccc1NC(=O)CSc1nc2c(oc3ccccc32)c(=O)n1CCOC,101,97,4,7
C=CCn1c(SCc2nnc(-c3ccccc3)o2)nnc1C(O)c1ccccc1 (configuration not stated),101,101,-3,-9
CN(C)C(=O)c1cn(-c2ccccc2)nc1-c1cccnc1,100,104,-4,.
NS(=O)(=O)c1ccc(CCNC(=O)CN2CCCCC2)cc1,101,110,3,-19
CCCC(=O)Oc1ccc(C(=O)OC)cc1,100,103,-2,6
COC(=O)CSC(=S)N1CCCC1,105,109,3,-47

# Next part
SMILES,Polio RdRp inh,Polio RdRp inh intensity,MbtI inh,MenB inh
CCOC(=O)c1ccc(NC(=O)C2C3CCCCC32)cc1 (configuration not stated),108,114,.,-12
O=C1CCCC(O)=C1C=Nc1ccc2c(c1)oc1ccccc12,102,102,-122,-14
c1ccc(C2CCC(N3CCNCC3)CC2)cc1 (configuration not stated),104,104,-9,-20
O=C(c1[nH]nc2c1CCc1ccccc1-2)N1CCCC1,101,102,0,-13
NCCCNC(=O)c1cc2ccccc2[nH]1,103,103,i,-6
O=C(CN(c1ccc(I)cc1)S(=O)(=O)c1ccccc1)Nc1cccnc1,99,104,-15,-3
COc1ccc(CN2C(=O)C(F)(F)C2c2ccco2)cc1 (configuration not stated),97,94,0,.
O=C(COC(=O)C12CC3CC(CC(O)(C3)C1)C2)c1ccc(Cl)cc1,.,.,-8,1
N#CCCN(N)C1=NS(=O)(=O)c2ccccc21,103,101,11,7
CN(C)Cc1c(O)ccc2c1O/C(=C\c1ccccc1)C2=O,98,116,12,-338
Cc1ccc(-c2cn3cccnc3n2)cc1NC(=O)Nc1ccccc1,105,110,5,-9
Cn1cc(NC(=O)N2CCCCC2)c2ccccc2c1=O,100,103,10,-20
O=C(/C=C/c1cccs1)NC1CCN(Cc2ccccc2)CC1,102,108,6,.
COc1cc(C=Nc2ccccc2C(N)=O)ccc1O,100,103,-10,-47
CCCCCn1c(SCC(=O)N2CCC(C(=O)O)CC2)nc2ccccc21,101,104,0,-41
O=C(Cc1ccc2c(c1)OCCO2)Nc1ccccc1N1CCOCC1,100,97,-4,-11
Oc1c(-c2ncc(-c3ccc(Cl)cc3)o2)sc2ncccc12,118,133,-21,-61
N#CCC(=O)N(Cc1ccccc1)C(=O)Nc1cccc(F)c1,108,111,-3,2
CC[N+]12CCC(CC1)C(C(O)(c1ccccc1)c1ccccc1)C2 (configuration not stated),105,105,8,-29
C=CCn1c(SCC(=O)Nc2ccc(S(N)(=O)=O)cc2)nnc1-c1ccco1,102,111,.,-9
CC(C)c1ccccc1NC(=O)CSc1nnc(-c2cccs2)n1CC1CCCO1 (configuration not stated),101,98,1,9
Cc1ccc(C(=O)NCC2OCCc3ccccc32)cc1 (configuration not stated),105,101,-2,-17
O=C(CSc1nncn1-c1ccccc1)NC1CC1,104,108,-4,1
CCCCNC(=O)Cn1nc(Cc2ccncc2)c2ccccc2c1=O,101,103,-2,8
Cc1ccsc1CNC(C)(C)CO,100,100,118,13

# An excerpt from above in order of number of heavy atoms, ascending:
SMILES,Polio RdRp inh,Polio RdRp inh intensity,MbtI inh,MenB inh
CCOCCn1ccc2c(OCC(N)=O)cccc2c1=O,102,109,55,-8
O=C(/C=C/c1cccs1)NC1CCN(Cc2ccccc2)CC1,102,108,6,.
CC(C)(C)c1ccc(S(=O)(=O)N2CCC(O)(c3ccc(Cl)cc3)CC2)cc1,105,111,-13,-18
C=CCn1c(SCc2nnc(-c3ccccc3)o2)nnc1C(O)c1ccccc1 (configuration not stated),101,101,-3,-9

# Part of the list above, as labelled records:
CCCCCn1c(SCC(=O)N2CCC(C(=O)O)CC2)nc2ccccc21
- Polio RdRp inh: 101
- Polio RdRp inh intensity: 104
- MbtI inh: 0
- MenB inh: -41

Cn1cc(NC(=O)N2CCCCC2)c2ccccc2c1=O
- Polio RdRp inh: 100
- Polio RdRp inh intensity: 103
- MbtI inh: 10
- MenB inh: -20

Cc1ccsc1CNC(C)(C)CO
- Polio RdRp inh: 100
- Polio RdRp inh intensity: 100
- MbtI inh: 118
- MenB inh: 13

COc1ccc(CN2C(=O)C(F)(F)C2c2ccco2)cc1 (configuration not stated)
- Polio RdRp inh: 97
- Polio RdRp inh intensity: 94
- MbtI inh: 0
- MenB inh: .

# Continued:
SMILES,Polio RdRp inh,Polio RdRp inh intensity,MbtI inh,MenB inh
CCOc1ccc(/C=N/n2nnnc2N)cc1OCC,98,97,-30,-20
CN=C1S/C(=C\c2ccc(Cl)cc2)C(=O)N1C,88*,98*,6,6
Cc1cc(/C=C(/C#N)C(=O)NC(C)C)c(C)n1-c1ccc2ccccc2c1,101,103,-1,-48
c1ccc(NCc2cccnc2)cc1,102,100,0,10
C=CCNc1ccc(C(=O)O)cc1,101,103,-62,-10
O=C1CSC(=NC2CC2)N1Cc1cccs1,103,98,-10,-28
CC(C)C(NC(=O)CSc1ccc(Cl)cc1)C(=O)O (configuration not stated),105,98,15,5
CC(C)(C)c1csc(-c2sccc2CS(=O)(=O)c2ccc(Cl)cc2)n1,106,114,-2,5
O=C(CSc1ccccc1C(=O)O)Nc1ccccc1OC(F)F,98,90,-20,22
NC(=O)C1CCN(C(=O)Cc2ccc(Cl)cc2)CC1,105,102,-14,4
CN1C(=O)/C(=C\N2CCCCC2)C(=O)NC1=S,99,101,5,-10
O=C(CN1CCOCC1)NC12CC3CC(CC(C3)C1)C2,102,102,-7,-6
CCn1c(=NC(=O)c2cccc(N3C(=O)CCC3=O)c2)sc2c(C)ccc(OC)c21,105,102,142,-20
CCC(Sc1nc(=O)cc(N)n1-c1ccccc1)C(=O)Nc1ccc(Cl)cn1 (configuration not stated),100,101,0,6
CCC(CC)NC(=O)c1ccc2c(c1)OCO2,101,105,.,-5
COc1ccc(C2CC(=O)c3cnc(NC(C)=O)nc3C2)cc1OC (configuration not stated),105,106,-7,-5
N/C(=N/S(=O)(=O)Cc1ccccc1)N1CCOCC1,101,103,3,2
Cc1ccc(N2C(=N)S/C(=C\c3ccc(-c4ccc(F)cc4)o3)C2=O)cc1C,101,107,-2,-30
O=C(SCc1nc2ccccc2[nH]1)c1ccc(-c2ccccc2)cc1,102,100,.,-19
